# HIV Env fusion = HIV envelope-mediated fusion inhibition | HeLa-JRFL Env/CEM21 cell fusion, luciferase | inhibition, % at 12.3 µM | 360,000 compounds, 1.1% hits | AID 651610;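 active = mean replicate inhibition score of at least 50 and every replicate individually at or above 50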;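 also: 0% = plate neutral controls and 100% = maraviroc near 300 nM; one replicate is shown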
# Yeast UUG start = alters start codon recognition fidelity in yeast; S. cerevisiae UUG-firefly luciferase reporter, luminescence/redox ratio; activity score, % at 18.7 µM; 350,000 compounds, 0.13% hits;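 active = replicate mean at a twofold rise or more, about +100% in these data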;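 also: firefly luciferase made from a UUG start codon reports start codon fidelity; reporter light over untreated wells divided by growth signal over untreated wells; some hits fall short of that in this replicate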
# An asterisk follows results filed as active; & = joins results of further samples; [ ] = remark or other dose. Not all compounds are listed; the hit share may differ from the screen's.
SMILES,HIV Env fusion,Yeast UUG start
C[C@H](CO)N1C[C@H](C)[C@@H](CN(C)C(=O)Cc2ccccc2)Oc2cc(C#CC3(O)CCCC3)ccc2S1(=O)=O,-26[16.7 µM],-7
COc1ccc(S(=O)(=O)Nc2ccc3c(c2)CC(=O)N([C@@H](C)CO)C[C@H](C)[C@@H](CN(C)Cc2ccc4c(c2)OCO4)O3)cc1,17[16.7 µM],3
CC(C)NC(=O)Nc1ccc2c(c1)C(=O)N(C)[C@H]1CC[C@@H](CC(=O)Nc3ccccc3)O[C@@H]1CO2,15[16.7 µM],10
CC(C)C#Cc1cnc2c(c1)C(=O)N([C@@H](C)CO)C[C@@H](C)[C@H](CN(C)C(=O)Cc1ccccn1)O2,1[16.7 µM],5
C[C@@H]1CN([C@@H](C)CO)C(=O)c2cccc(NS(=O)(=O)c3ccccc3)c2O[C@H]1CN(C)Cc1ccncc1,-87[16.7 µM],-9
COc1ccccc1S(=O)(=O)N(C)C[C@H]1Oc2ncc(-c3ccc(C)cc3)cc2C(=O)N([C@H](C)CO)C[C@@H]1C,13[16.7 µM],12
C[C@H]1CN([C@@H](C)CO)C(=O)c2cc(C3=CCCCC3)cnc2O[C@@H]1CN(C)C(=O)c1ccc(F)cc1,6[16.7 µM],26
Cc1noc(C)c1S(=O)(=O)Nc1ccc2c(c1)C(=O)N([C@H](C)CO)C[C@@H](C)[C@@H](CN(C)C(=O)NC(C)C)OCCCC[C@H](C)O2,-22[16.7 µM],-7
C[C@@H]1CCCCO[C@H](CN(C)C(=O)CCC(F)(F)F)[C@H](C)CN([C@H](C)CO)C(=O)c2cc(NC(=O)c3ccccc3)ccc2O1,29[16.7 µM],20
C[C@H](CO)N1C[C@H](C)[C@H](CN(C)C(=O)Nc2ccc(F)cc2)OCCCC[C@H](C)Oc2ccc(NC(=O)c3ccccc3)cc2C1=O,-52[16.7 µM],-1
C[C@H](CO)N1C[C@H](C)[C@@H](CN(C)Cc2ccncc2)Oc2ccc(NC(=O)CCCCCC(=O)Nc3ccccc3N)cc2CC1=O,-15[16.7 µM],-6
C[C@H](CO)N1C[C@H](C)[C@H](CN(C)S(=O)(=O)c2cccs2)Oc2ncc(C#Cc3ccccc3)cc2C1=O,0&12[16.7 µM],-12&6
C[C@H]1CN([C@@H](C)CO)C(=O)Cc2cc(NC(=O)C3CCCCC3)ccc2O[C@@H]1CN(C)CC1CCCCC1,-17[16.7 µM],1
CC(C)C[C@@H]1NC(=O)[C@@H]2C[C@H](C(=O)NCc3ccc(F)cc3)[C@H](c3ccc(O)cc3)N2C1=O,7[16.7 µM],-1
COc1ccc(NC(=O)N(C)C[C@H]2OCCCC[C@H](C)Oc3ccc(NS(C)(=O)=O)cc3C(=O)N([C@H](C)CO)C[C@@H]2C)cc1,23[16.7 µM],-3
COc1ccccc1S(=O)(=O)N(C)C[C@@H]1Oc2cc(/C=C/c3ccccc3)ccc2S(=O)(=O)N([C@H](C)CO)C[C@H]1C,22[16.7 µM],-7
C[C@@H]1CN([C@@H](C)CO)C(=O)c2cc(NS(C)(=O)=O)ccc2O[C@@H](C)CCCCO[C@H]1CN(C)C,3[16.7 µM],-10
CN(C)C(=O)C[C@@H]1CC[C@H]2[C@@H](COc3ccc(NC(=O)c4ccc(F)c(F)c4)cc3C(=O)N2C)O1,16[16.7 µM],20
C[C@@H]1CCCCO[C@@H](CN(C)C(=O)Nc2ccc(F)cc2)[C@H](C)CN([C@H](C)CO)C(=O)c2cc(NS(=O)(=O)c3cn(C)cn3)ccc2O1,-9[16.7 µM],11
CC(C)NC(=O)N(C)C[C@@H]1Oc2c(NC(=O)Nc3ccc(C(F)(F)F)cc3)cccc2C(=O)N([C@@H](C)CO)C[C@@H]1C,-30[16.7 µM],2
O=C(Nc1ccc2c(c1)[C@@H]1C[C@H](CC(=O)N3CCCCC3)O[C@@H](CO)[C@@H]1O2)Nc1ccccc1F,-3[16.7 µM],4
C[C@@H]1CCCCO[C@H](CN(C)S(=O)(=O)c2ccc(Cl)cc2)[C@H](C)CN([C@H](C)CO)C(=O)c2cc(NC(=O)c3ccncc3)ccc2O1,21[16.7 µM],-1
C[C@@H]1CN([C@@H](C)CO)S(=O)(=O)c2ccc(C#Cc3ccccc3)cc2O[C@@H]1CN(C)C(=O)CN(C)C,5[16.7 µM],25
C[C@H](CO)N1C[C@H](C)[C@H](CN(C)C(=O)Nc2ccccc2)OCCCC[C@H](C)Oc2ccc(NC(=O)c3ccccc3)cc2C1=O,-78[16.7 µM],3
C[C@@H]1CN([C@@H](C)CO)C(=O)c2cccc(NC(=O)C3CC3)c2O[C@H]1CN(C)S(C)(=O)=O,11[16.7 µM],-26
# New compounds follow
SMILES,HIV Env fusion,Yeast UUG start
C[C@@H]1CCCCO[C@@H](CN(C)C(=O)Nc2ccccc2)[C@H](C)CN([C@@H](C)CO)C(=O)c2cc(NS(=O)(=O)c3cn(C)cn3)ccc2O1,-8[16.7 µM],1
C[C@@H]1CN([C@H](C)CO)C(=O)c2cc(-c3ccncc3)cnc2O[C@@H]1CN(C)C(=O)Cc1cccnc1,-10[16.7 µM],-1
COc1ccc(NC(=O)N(C)C[C@@H]2OCCCC[C@H](C)Oc3ccc(NC(=O)CCC(F)(F)F)cc3C(=O)N([C@@H](C)CO)C[C@@H]2C)cc1,-14[16.7 µM],34
C[C@H](CO)N1C[C@H](C)[C@H](CN(C)Cc2cccc(C(F)(F)F)c2)Oc2ncc(-c3ccccc3)cc2C1=O,1[16.7 µM],41
C[C@@H]1CCCCO[C@@H](CN(C)C(=O)NC2CCCCC2)[C@@H](C)CN([C@@H](C)CO)C(=O)c2cc(NS(=O)(=O)c3cccs3)ccc2O1,-17[16.7 µM],36
CO[C@@H]1CN(C)C(=O)c2cc(NS(C)(=O)=O)ccc2OC[C@@H](C)N(C(=O)C2CCC2)C[C@@H]1C,11[16.7 µM],-11
C[C@@H]1CN([C@@H](C)CO)C(=O)c2cccc(NS(=O)(=O)c3ccc(F)cc3)c2O[C@H]1CN(C)S(=O)(=O)c1cn(C)cn1,5[16.7 µM],5
COc1ccc(S(=O)(=O)Nc2ccc3c(c2)C(=O)N([C@@H](C)CO)C[C@H](C)[C@@H](CN(C)C(=O)Nc2ccc(F)cc2)OCCCC[C@H](C)O3)cc1,19[16.7 µM],-11
C[C@H](CO)N1C[C@H](C)[C@H](CN(C)Cc2ccc(C(F)(F)F)cc2)Oc2ccc(NC(=O)NC3CCCCC3)cc2CC1=O,7[16.7 µM],-7
Cc1noc(C)c1NC(=O)Nc1ccc2c(c1)C(=O)N([C@@H](C)CO)C[C@H](C)[C@@H](CN(C)Cc1ccncc1)OCCCC[C@H](C)O2,-12[16.7 µM],-6
CC(=O)N(C)C[C@H]1Oc2ncc(C#Cc3cccnc3)cc2C(=O)N([C@@H](C)CO)C[C@H]1C,5[16.7 µM],9
C[C@@H]1CN([C@H](C)CO)S(=O)(=O)c2ccc(C#Cc3ccccc3)cc2O[C@H]1CN(C)S(=O)(=O)c1ccccc1F,25[16.7 µM],-8
C[C@H]1CN([C@@H](C)CO)C(=O)Cc2cc(NC(=O)Cn3cnnn3)ccc2O[C@H]1CN(C)CC1CC1,13[16.7 µM],-9
CCCS(=O)(=O)NC(=O)C1(C)CCCN(C(=O)C2(c3ccc(Cl)cc3)CCCC2)C1 (stereo unspecified),-20,-1
Cc1ccc(S(=O)(=O)N(C)C[C@H]2Oc3c(NC(=O)Nc4ccc5c(c4)OCO5)cccc3C(=O)N([C@@H](C)CO)C[C@H]2C)cc1,-36[16.7 µM],2
O=C(C[C@H]1CC[C@H]2[C@@H](COC[C@@H](O)CN2S(=O)(=O)c2ccccc2)O1)NCCN1CCCCC1,-4[16.7 µM],-2
C[C@H](CO)N1C[C@H](C)[C@H](CN(C)S(=O)(=O)c2ccccc2)Oc2ccc(NS(=O)(=O)c3ccc(Cl)cc3)cc2CC1=O,56*[16.7 µM],-5
Cc1ccccc1S(=O)(=O)N1[C@H](CO)[C@H](c2ccccc2)[C@@H]1C#N,4[16.7 µM],-15
COc1ccc([Si](C)(C)[C@@H]2[C@@H](CCO)O[C@]3(C(=O)N(Cc4cccc(NC(C)=O)c4)c4ccccc43)[C@H]2C)cc1,14[16.7 µM],14
CCC(=O)N(C)C[C@H]1Oc2ncc(C#C[C@H](C)O)cc2C(=O)N([C@H](C)CO)C[C@H]1C,-6[16.7 µM],-5
Cc1noc(C)c1NC(=O)Nc1ccc2c(c1)C(=O)N([C@H](C)CO)C[C@H](C)[C@H](CN(C)S(=O)(=O)c1ccc(Cl)cc1)O2,-41[16.7 µM],-14
COc1ccc(CN(C)C[C@@H]2Oc3ccc(NC(=O)Nc4ccccc4)cc3CC(=O)N([C@H](C)CO)C[C@H]2C)cc1,-16[16.7 µM],4
C[C@@H]1CN([C@H](C)CO)C(=O)c2cccc(NC(=O)c3ccc(-c4nccs4)cc3)c2O[C@H]1CN(C)Cc1ccc(-c2ccccc2)cc1,20[16.7 µM],-3
Cc1ccc(S(=O)(=O)Nc2cccc3c2O[C@@H](CN(C)S(=O)(=O)c2cccs2)[C@H](C)CN([C@@H](C)CO)C3=O)cc1,29[16.7 µM],6
Cc1noc(C)c1NC(=O)N(C)C[C@H]1Oc2ccc(NS(C)(=O)=O)cc2CC(=O)N([C@H](C)CO)C[C@H]1C,22[16.7 µM],-7
# (listing goes on)
SMILES,HIV Env fusion,Yeast UUG start
C[C@@H]1CCCCO[C@@H](CN(C)C(=O)CCC(F)(F)F)[C@H](C)CN([C@@H](C)CO)C(=O)c2cc(NC(=O)Cc3ccccc3)ccc2O1,-20[16.7 µM],2
C[C@@H]1CN([C@@H](C)CO)C(=O)c2cc(C#CC3CCCCC3)cnc2O[C@H]1CN(C)S(C)(=O)=O,-20[16.7 µM],7
C[C@@H]1CN([C@@H](C)CO)C(=O)c2cc(-c3cncnc3)cnc2O[C@H]1CN(C)C(=O)c1cccc(F)c1,-7[16.7 µM],5
COCCNC(=O)C[C@H]1C[C@@H]2c3cc(NC(=O)Nc4ccccc4F)ccc3O[C@@H]2[C@H](CO)O1,-17[16.7 µM],-4
O=C(NCC[C@@H]1CC[C@H](NC(=O)C2CCCCC2)[C@H](CO)O1)Nc1ccc(Cl)cc1,-11[16.7 µM],9
CC(C)NC(=O)N(C)C[C@@H]1Oc2cc(C#Cc3ccc(F)cc3)ccc2S(=O)(=O)N([C@@H](C)CO)C[C@@H]1C,13[16.7 µM],20
CCCNC(=O)Nc1ccc2c(c1)C(=O)N(C)[C@@H]1CC[C@@H](CC(=O)NC3CCC3)O[C@H]1CO2,0[16.7 µM],-19
CNC[C@@H]1Oc2ccc(NC(=O)Cc3ccccc3)cc2CC(=O)N([C@@H](C)CO)C[C@H]1C,-3[16.7 µM],2
C[C@@H]1CN([C@@H](C)CO)S(=O)(=O)c2ccc(C3=CCCC3)cc2O[C@H]1CN(C)CC1CC1,20[16.7 µM],-4
CCCN(C)C[C@@H]1Oc2cc(Br)ccc2S(=O)(=O)N([C@H](C)CO)C[C@@H]1C,-12[16.7 µM],-1
CNC[C@H]1Oc2c(NS(=O)(=O)c3ccc(F)cc3)cccc2C(=O)N([C@@H](C)CO)C[C@H]1C,-3[16.7 µM],-6
Cc1cccc(S(=O)(=O)N[C@@H]2CC[C@H](CCNC(=O)CCN3CCCCC3)O[C@@H]2CO)c1,11[16.7 µM],-2
O=C(CN1CCOCC1)NCC[C@@H]1CC[C@@H](NC(=O)Nc2ccccc2)[C@@H](CO)O1,-14[16.7 µM],-2
C[C@H](CO)N1C[C@H](C)[C@@H](CN(C)C(=O)Nc2ccccc2)Oc2ccc(NC(=O)Cc3ccccc3)cc2CC1=O,5[16.7 µM],60
C[C@H](CO)N1C[C@H](C)[C@@H](CN(C)C)Oc2ccc(N(C)C)cc2C1=O,-6[16.7 µM],-9
O=C(CN1CCOCC1)N[C@@H]1CC[C@@H](CCNC(=O)Nc2cc(F)ccc2F)O[C@@H]1CO,5[16.7 µM],-2

# Part of the list above, reformatted.
canonical_smiles | HIV Env fusion | Yeast UUG start
C[C@H](CO)N1C[C@H](C)[C@@H](CN(C)C(=O)Cc2ccccc2)Oc2cc(C#CC3(O)CCCC3)ccc2S1(=O)=O | -26[16.7 µM] | -7
COc1ccc(S(=O)(=O)Nc2ccc3c(c2)CC(=O)N([C@@H](C)CO)C[C@H](C)[C@@H](CN(C)Cc2ccc4c(c2)OCO4)O3)cc1 | 17[16.7 µM] | 3
CC(C)NC(=O)Nc1ccc2c(c1)C(=O)N(C)[C@H]1CC[C@@H](CC(=O)Nc3ccccc3)O[C@@H]1CO2 | 15[16.7 µM] | 10
CC(C)C#Cc1cnc2c(c1)C(=O)N([C@@H](C)CO)C[C@@H](C)[C@H](CN(C)C(=O)Cc1ccccn1)O2 | 1[16.7 µM] | 5
C[C@@H]1CN([C@@H](C)CO)C(=O)c2cccc(NS(=O)(=O)c3ccccc3)c2O[C@H]1CN(C)Cc1ccncc1 | -87[16.7 µM] | -9
COc1ccccc1S(=O)(=O)N(C)C[C@H]1Oc2ncc(-c3ccc(C)cc3)cc2C(=O)N([C@H](C)CO)C[C@@H]1C | 13[16.7 µM] | 12
C[C@H]1CN([C@@H](C)CO)C(=O)c2cc(C3=CCCCC3)cnc2O[C@@H]1CN(C)C(=O)c1ccc(F)cc1 | 6[16.7 µM] | 26
Cc1noc(C)c1S(=O)(=O)Nc1ccc2c(c1)C(=O)N([C@H](C)CO)C[C@@H](C)[C@@H](CN(C)C(=O)NC(C)C)OCCCC[C@H](C)O2 | -22[16.7 µM] | -7
C[C@@H]1CCCCO[C@H](CN(C)C(=O)CCC(F)(F)F)[C@H](C)CN([C@H](C)CO)C(=O)c2cc(NC(=O)c3ccccc3)ccc2O1 | 29[16.7 µM] | 20

# Screening results deposited in PubChem BioAssay by Broad Institute.
